Screens as filed in PubChem BioAssay.
KCNQ2 enhance: potentiators of rat KCNQ2 potassium channel; AID 2239, 2010; CHO-K1 KCNQ2, FluxOR thallium flux fluorescence; active compounds read high; 310,000 compounds, 0.54% hits; B-score at 10 µM; Potassium voltage-gated channel subfamily KQT member 2 (Rattus norvegicus), O88943;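 active means fluorescence ratio B-score at least 3 SD of library B-scores, with initial fluorescence B-score within 3 SD, cut at about 5.3 in these data; same plate scores as AID 2156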;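 further: B-score of peak minus minimum over baseline fluorescence ratio after K+ and Tl+ stimulus; positive B-score means potentiation of KCNQ2 with more thallium influx and brighter signal; only the inactives scoring about 0 or higher are listed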
Target sequence (O88943 whole entry, looked up): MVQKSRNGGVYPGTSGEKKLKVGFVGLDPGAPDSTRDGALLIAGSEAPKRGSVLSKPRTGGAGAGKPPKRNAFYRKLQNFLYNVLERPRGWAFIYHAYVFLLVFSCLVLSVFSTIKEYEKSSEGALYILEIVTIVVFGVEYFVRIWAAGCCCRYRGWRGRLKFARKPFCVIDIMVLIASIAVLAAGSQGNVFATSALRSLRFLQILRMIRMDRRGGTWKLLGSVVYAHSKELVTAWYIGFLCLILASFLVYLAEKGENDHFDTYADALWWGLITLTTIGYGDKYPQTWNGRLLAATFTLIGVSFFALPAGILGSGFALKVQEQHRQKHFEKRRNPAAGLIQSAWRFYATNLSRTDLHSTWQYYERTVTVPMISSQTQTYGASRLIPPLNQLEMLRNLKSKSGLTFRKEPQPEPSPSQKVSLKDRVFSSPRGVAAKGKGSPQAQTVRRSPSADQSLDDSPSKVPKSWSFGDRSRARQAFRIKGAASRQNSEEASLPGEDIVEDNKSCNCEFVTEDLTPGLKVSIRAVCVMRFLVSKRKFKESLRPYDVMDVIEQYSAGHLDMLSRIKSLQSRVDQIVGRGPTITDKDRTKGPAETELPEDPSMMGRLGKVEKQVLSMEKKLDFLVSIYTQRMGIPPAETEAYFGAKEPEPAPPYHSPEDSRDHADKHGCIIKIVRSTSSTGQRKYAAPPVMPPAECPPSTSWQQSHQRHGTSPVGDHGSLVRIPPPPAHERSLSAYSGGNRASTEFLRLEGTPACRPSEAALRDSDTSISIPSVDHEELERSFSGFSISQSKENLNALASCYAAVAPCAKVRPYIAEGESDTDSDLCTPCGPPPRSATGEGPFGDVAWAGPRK
KCNQ2 enhance baseline: recorded beside KCNQ2 enhance, whose call it bears; B-score; compound at 10 µM; measured here: initial fluorescence intensity artifact check;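 brightness before thallium and not channel activity; 0 = typical well and far values either way flag optical interference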
* marks the source's active call; other numbers are inactive results; x = no result given. These rows are one share of the data (hit frequency here may not be typical).

KCNQ2 enhance baseline	KCNQ2 enhance	mol
-2.1	2.3	O=C1CC(c2ccccc2)CC(=O)C1Sc1ccc(Cl)cc1 (stereo unspecified)
0.33	0.18	COc1ccc(CCNC(=O)N[C@@H](Cc2ccccc2)C(=O)O)cc1
-1.6	0.2	CCc1ccc(C(=O)/C=C2\Sc3ccccc3NC2=O)cc1
-2	0.29	C=CCn1c(SCc2n[nH]c(=S)n2-c2ccccc2)nnc1-c1ccccc1
-0.04	2.6	O=C(NCc1ccccc1)C1CCN(C(=O)NCc2ccccc2)CC1
0	0.11	O=C(CC1CCCCC1)Nc1c2c(nn1-c1ccc(F)cc1)CS(=O)(=O)C2
0.02	0.8	O=C1NC(c2ccc(Br)cc2)=N/C1=C/c1ccco1
-0.94	2.1	CCCn1nnc(NC(=O)COc2ccccc2Cl)n1
0.76	1.4	CN(C)c1ccnc2sc3c(=O)n(-c4ccccc4)cnc3c12
-0.32	0.26	O=C(N/N=C\c1c[nH]c2ccccc12)c1ccc(O)cc1

Other records.
KCNQ2 enhance baseline	KCNQ2 enhance	mol
-0.04	0.05	CCN(c1ccc(C)cc1C)S(=O)(=O)c1nnc(NC(=O)c2ccco2)s1
0.08	0.17	C/C(N)=C(/C#N)C(=O)CSc1nc2scc(-c3ccccc3)c2c(=O)n1C
-1.6	2.3	CC(C)c1ccc(NC(=O)c2cccc(NC3=NC4CS(=O)(=O)CC4S3)c2)cc1 (stereo unspecified)
-1.6	0.73	O=C(O)/C(=C/c1cccnc1)NC(=O)c1ccccc1
-0.42	1.2	O=C1OC(c2ccc(Cl)cc2)=C/C1=C/c1cccnc1
-0.61	1.2	CCN(CC)CCNC(=O)c1cccc(NC(=O)C(=O)c2cc(Br)ccc2NC(C)=O)c1
1.7*	7.1*	CC(C)C1=NN(C(=O)c2ccccc2)C(O)(C(C)(C)C)C1 (stereo unspecified)
-0.67	0.08	CCOC(=O)NC(NCc1cccc(C(F)(F)F)c1)(C(F)(F)F)C(F)(F)F
0.96	0.7	COCCc1nnc(NC(=O)C(C)C)s1
1.8	0.35	COc1ccc(NC(=O)CN(C)C(=O)c2cccc(S(=O)(=O)N3CC4(C)CC3CC(C)(C)C4)c2)cc1 (stereo unspecified)

Additional entries follow:
KCNQ2 enhance baseline	KCNQ2 enhance	mol
-0.83	0.96	Clc1ccc(CN=C2Nc3ccccc3CS2)cc1
0.45	0.11	CCC(C)NC(=O)c1cc2cc3ccc(OC)cc3nc2s1 (stereo unspecified)
0.48	0.94	CCCCCCCc1ccc(C2NC(=S)NC3=C2C(=O)c2ccccc23)cc1 (stereo unspecified)
1.7	1.2	CN1/C(=C\C(=O)C[n+]2ccc3ccccc3c2)C(C)(C)c2ccccc21
-1.2	0.09	Cc1ccccc1CNC1CCCCC1
0.04	0.42	COc1nnc(-c2ccc(C)c(S(=O)(=O)NCC3CCCO3)c2)c2ccccc12 (stereo unspecified)
-2.1	2	Cc1c(CCC(=O)N2CCC(C(=O)O)(c3ccccc3)CC2)c(=O)oc2cc3oc4c(c3cc12)CCCC4
-1.2	0.34	CCOCCCNC(=O)CCNC(=O)c1cc(OC)c(OC)c(OC)c1
-0.98	1.4	O=C(O)C1C2C=CC(C2)C1C(=O)NCc1cccnc1 (stereo unspecified)
0.96	0.28	COC(=O)c1cc(CNC(=O)CC(C)c2ccccc2)ccc1OC (stereo unspecified)

(further entries)
KCNQ2 enhance baseline	KCNQ2 enhance	mol
1.6	0.41	COc1ccc(C/C(N)=N/OC(=O)Cc2ccccc2)cc1OC
-0.03	0.61	O=C(CCCNC(=O)c1ccc(Cl)cc1)OCc1cccc(Br)c1
0.94	0.02	Cc1cc2c(c(SCC(=O)N(C)c3ccccc3)n1)C(=O)OC2
-0.03	1.2	CN1CCN(S(=O)(=O)c2cccc(C(=O)Nc3nccs3)c2)CC1
0.28	0.35	Cn1c(SCC(=O)NNC(=O)c2ccc(Br)cc2)nnc1-c1cccnc1
-0.58	0.85	COc1ccccc1C1=NOC(COC(=O)c2ccc3ccccc3n2)C1 (stereo unspecified)
0.29	1.6	CCCCNC(=O)Cn1c(=O)oc2cc(S(=O)(=O)N3CC(C)CC(C)C3)ccc21 (stereo unspecified)
0.02	0.64	COC(=O)Nc1ccc(S(=O)(=O)N2CCC(C(=O)NC3CCCCC3)CC2)cc1
1.4	0.35	CCCCN(C)CCNC(=O)c1c[nH]c2ccc(S(=O)(=O)N(CC)CC)cc2c1=O
2.3	0.49	CCOc1ccc(CC(=O)N/N=C(\C)c2cccnc2)cc1

Further entries follow:
KCNQ2 enhance baseline	KCNQ2 enhance	mol
-1.2	0.96	CC(=O)Nc1ccccc1OCCOc1ccc(Br)cc1
0.78	0.56	COC(C[C@H]1O[C@@H]1[C@H](O)[C@H](C)OCc1ccccc1)OC
-0.12	0.89	Cc1cccc(-c2nnc3sc(-c4ccccc4)nn23)c1
-0.91	1.4	O=C1CCC(=O)N1CC1CC2CCC1C2 (stereo unspecified)
-0.55	0.08	CCCC(=O)Nc1ccc(Cl)c(NC(=O)c2ccc(Br)o2)c1
-1	0.45	COc1cccc(N2C(=O)CC(N3CCC(c4nc5ccccc5[nH]4)CC3)C2=O)c1 (stereo unspecified)
-0.61	0.39	COc1cc(C(=O)NCC2CCCO2)ccc1OCc1ccccc1 (stereo unspecified)
-0.26	1.5	COC(=O)c1nc(NC(=O)c2ccc(F)cc2)n[nH]1
0.14	0.05	COc1ccc(NS(=O)(=O)c2cccc(C(=O)NCC(c3ccco3)N3CCCC3)c2)cc1 (stereo unspecified)
-0.58	0.98	O=C(NCC(=O)N(c1cccnc1)C(C(=O)NC1CCCCC1)c1cccnc1)c1ccco1 (stereo unspecified)

More results
KCNQ2 enhance baseline	KCNQ2 enhance	mol
-2.3	1.5	CCCCN(C)S(=O)(=O)c1ccc(C(=O)N(CCN(C)C)c2nc3ccc(C)cc3s2)cc1
x	1.2	COc1cc(/C=N/NC(=O)c2ccncc2)ccc1O
-1.6	2.1	CCOc1ccc(CN(C)C(=O)[C@H](C)NC(=O)c2ccco2)cc1OC
-0.27	1.4	O=c1cc(Cl)[nH]c(=O)n1Cc1ccc(F)cc1
1.4	0.46	CC(Oc1ccc(Br)cc1)C(=O)NC1CCN(Cc2ccccc2)CC1 (stereo unspecified)
0.63	2.4	COc1ccc(CCN(C)C(=O)CSc2nccn2C)cc1OC
1.5	0.09	C=CCn1c(Cc2csc(N)n2)nnc1SCC(=O)OCC
-0.02	0.35	O=C(O)C1CCN(Cc2ccccn2)CC1
-0.08	0.01	C(=N\NCc1ccccc1)/c1ccc2ncccc2c1
-0.02	0.9	Cc1onc(-c2c(F)cccc2Cl)c1C(=O)Nc1nccs1

Going on with the list:
KCNQ2 enhance baseline	KCNQ2 enhance	mol
2.1	0.46	O=C(NNC(=O)C1CCN(S(=O)(=O)c2ccc(Cl)cc2)CC1)c1ccc(Cl)cc1
0.65	1.7	CCOC(=O)CC(NS(=O)(=O)c1ccc(NC(C)=O)cc1)c1ccc(OCC)cc1 (stereo unspecified)
0.33	0.89	O=C(NNC(=O)c1cc2ccccc2oc1=O)c1ccccc1
-0.59	0.38	CCOC(=O)c1cc2c(OC)ccc(OC)c2n1CC(=O)c1ccccc1
-0.62	0.23	CC(=O)c1ccc(Oc2ccc(C(C)=O)cc2)cc1
0.53	2.3	O=[N+]([O-])c1cc(NCCO)c(N2CCCCCC2)c2nonc12
0.14	1.3	Cc1ccccc1C1C(C#N)=C2NC(=O)c3c(sc4c3CCCCC4)N2C2=C1C(=O)CC(C)(C)C2 (stereo unspecified)
-0.43	0.23	Cc1ccc(NS(=O)(=O)c2ccc(C)c(C(=O)N3CCN(C)CC3)c2)cc1
0.32	0.42	COc1ccc(-c2cc(C(=O)N/N=C/c3cc(OC)c(OC)cc3OC)c3ccccc3n2)cc1
-0.65	0.19	Cc1ccc(C(C(=O)NCC2CCCO2)N(C(=O)c2snc(C(N)=O)c2N)c2ccc(F)cc2)o1 (stereo unspecified)

Continued, overlapping the part above by three compounds.
KCNQ2 enhance baseline	KCNQ2 enhance	mol
-0.43	0.23	Cc1ccc(NS(=O)(=O)c2ccc(C)c(C(=O)N3CCN(C)CC3)c2)cc1
0.32	0.42	COc1ccc(-c2cc(C(=O)N/N=C/c3cc(OC)c(OC)cc3OC)c3ccccc3n2)cc1
-0.65	0.19	Cc1ccc(C(C(=O)NCC2CCCO2)N(C(=O)c2snc(C(N)=O)c2N)c2ccc(F)cc2)o1 (stereo unspecified)
-1.1	1.3	CN(Cc1ccc(OCC(O)CN(C)Cc2ccccc2)cc1)Cc1nccn1C (stereo unspecified)
0.11	0.12	COc1ccccc1N1CCN(CC(=O)NCc2ccc(Cl)cc2)CC1
1.1	0.19	NC(=O)Cc1ccc(C(=O)c2ccc(F)cc2)s1
-1.2	0.43	Cc1cccc(N2C(=O)N3[C@H](c4ccc(Cl)cc4)[C@@H]4C(=O)N(C5CCCCC5)C(=O)[C@@H]4[C@]3(Cc3ccc(Cl)cc3)C2=O)c1
-1.2	0.93	CC(=O)c1ccc(NC(=O)CN2CCC(C(=O)c3ccc4c(c3)OCCO4)CC2)cc1
-2.7	0.36	COC(=O)c1sc(C(F)(F)F)c(-c2ccccc2)c1S(=O)(=O)N1CCCC1
0.02	1.3	CCOc1ccccc1NC(=O)CSc1nnc(CNC(=O)c2cccs2)o1
0.99	0.11	COc1ccc(CC(=O)Nc2ccccc2N2CCOCC2)cc1OC
-0.07	0.5	Cc1ccc(S(=O)(=O)NCCN2CCNC2=O)cc1
0.82	0.77	CCn1c(SCC(=O)N2CCC(C)CC2)nc2c(c1=O)SCC2

(list continues)
KCNQ2 enhance baseline	KCNQ2 enhance	mol
0.04	0.02	O=C(CC1C(=O)NCCN1Cc1ccc(-c2ccccc2)cc1)NCc1ccncc1 (stereo unspecified)
-0.02	1.4	Cc1ccc(OCCN(C)C)c([N+](=O)[O-])c1
0.17	0.14	O=S(=O)(/N=C(/NNS(=O)(=O)c1ccccc1)c1ccccc1)c1ccccc1
-2.2	1.7	Cc1cc(OCC(O)CN2CCN(C)CC2)ccc1C(C)C (stereo unspecified)
-1.1*	18*	CS(=O)(=O)N(CC(=O)Nc1ccccc1Sc1ccccc1)c1cccc(Br)c1
-0.01	0.92	O=C(CSc1nc2nccnc2c(=O)n1Cc1cccs1)Nc1ccccc1F
-0.69	0.56	CN(C(=O)c1sc2nc(N3CCCC3)c3c(c2c1N)CC(C)(C)OC3)c1ccccc1
0.84	0.38	CC(=O)Oc1ccc(C(=O)Nc2cccc(C(=O)c3cccc(NC(=O)c4ccc(OC(C)=O)cc4)c3)c2)cc1
0	0.96	Cc1ccc(NC(=O)Cc2noc3ccccc23)cc1
-0.22	2.4	S=C(NCc1ccncc1)Nc1ccc(Br)cc1

Four of the compounds above, field by field:
smiles: CCOC(=O)NC(NCc1cccc(C(F)(F)F)c1)(C(F)(F)F)C(F)(F)F
  KCNQ2 enhance baseline: -0.67; KCNQ2 enhance: 0.08
smiles: COCCc1nnc(NC(=O)C(C)C)s1
  KCNQ2 enhance baseline: 0.96; KCNQ2 enhance: 0.7
smiles: COc1ccc(NC(=O)CN(C)C(=O)c2cccc(S(=O)(=O)N3CC4(C)CC3CC(C)(C)C4)c2)cc1 (stereo unspecified)
  KCNQ2 enhance baseline: 1.8; KCNQ2 enhance: 0.35
smiles: Clc1ccc(CN=C2Nc3ccccc3CS2)cc1
  KCNQ2 enhance baseline: -0.83; KCNQ2 enhance: 0.96

Next results follow.
KCNQ2 enhance baseline	KCNQ2 enhance	mol
0.27	0.92	CCOC(=O)N1CCN(C(=O)CSCC(=O)Nc2nc(-c3ccc(-c4ccccc4)cc3)cs2)CC1
1.1	0.12	C/C(CC(=O)Nc1ccccn1)=N\NC(=O)c1ccc([N+](=O)[O-])cc1Cl
-0.45	1	COC(=O)c1ccccc1NC(=O)Cn1cnc2c(cnn2-c2ccccc2)c1=O
0.33	0.44	CCCn1c(SCC(=O)c2ccc(OC)c(OC)c2)nc2c1c(=O)n(C)c(=O)n2C
0.16	0.17	CCOC(=O)c1cc(C#N)c(=S)[nH]c1C
-0.14	0.93	CCOc1cc(C(=S)N2CCCCC2)ccc1OS(=O)(=O)c1ccc(Cl)cc1
0.65	0.65	COc1cc(SC)ccc1C(=O)Nc1ccc2c(c1)OCO2
-0.36	0.49	CS(=O)(=O)NCC(c1ccco1)N1CCN(c2ccc(F)cc2)CC1 (stereo unspecified)
1.5	0.89	COC(=O)c1ccccc1NC(=O)Cn1c(-c2nonc2N)nc2ccccc21
-1.9	0.69	Cc1cc(C)cc(N(C(=O)c2csnn2)C(C(=O)NC2CCCC2)c2ccccn2)c1 (stereo unspecified)

Further entries follow.
KCNQ2 enhance baseline	KCNQ2 enhance	mol
1.3	1.4	OC(CNCCCCNCC(O)C(F)(F)F)C(F)(F)F (stereo unspecified)
-0.95	2.4	Cc1ccc2nc(Nc3ccc(C)c(C)c3)c3nncn3c2c1
0.45*	5.8*	COC(=O)c1nc(NC(=S)NC(=O)c2cccs2)sc1C
-0.42	0.01	O=C(Nc1cccs1)NC1CCCC1
1.3	3.4	Cc1ccsc1C(=O)NNC(=S)NC1CCCCC1
0.95	0.09	CC(NC(=O)Cc1c(F)cccc1Cl)C1CCCO1 (stereo unspecified)
-0.61	0.36	Cc1ccccc1NC(=O)Cn1cnc2c(oc3ccccc32)c1=O
-0.99	2.3	CCOCCCNC(=S)N1CCC(NC(=O)C23CC4CC(CC(C4)C2)C3)CC1
0.12	0.01	COc1cccc(OC)c1C(=O)N1CCN(S(=O)(=O)c2ccc(C)cc2)CC1
-0.02	0.84	CCOc1cc(C(c2c(C)[nH][nH]c2=O)c2c(C)[nH][nH]c2=O)cc(Cl)c1O
0.69	0.46	CN1CCc2c(n(CC(O)CN(CCO)CCO)c3ccccc23)C1=O (stereo unspecified)
-0.05	1.8	Cc1ccc(-c2nc(C#N)c(NCCc3ccccn3)o2)cc1
-0.81	1.4	COCCCn1c(SCc2nnc(-c3ccc(OC)c(OC)c3)o2)nnc1-c1ccncc1
